Mtb bLac sens – beta-lactam sensitization of Mtb H37Rv; actives 0.27% (n = 330,000); inhibition, % at 25 µM; AID 434955; M. tuberculosis H37Rv growth with meropenem, percent inhibition; hits of this screen are not shown here;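 active = about 74% or more and at least 40 points above the plate without the antibiotic, then above 30% in a dose series; inconclusive = first-round hits that could not be retested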;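 also: growth measured after seven days incubation then overnight dye step; 0% = bacteria only wells and 100% = bacteria with antibiotic; twin plates without the antibiotic show which effects depend on it; some results filed as inactive read as strong as hits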
Arbovirus anti – arbovirus infection inhibition. arbovirus infection cell-based antiviral screen. inhibition, % at 10 µM. actives 0.37% (n = 200,000). AID 1251;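 active = inhibition from about 30%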;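 also: bluetongue infection of BSR cells; cell survival read as ATP light after 72 h; 0% = infected wells without compound and 100% = uninfected wells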
YopH inh – blocks Yersinia enterocolitica YopH tyrosine phosphatase; fluorescence Ex485/Em525; actives 0.16% (n = 140,000); AID 898; inhibition, %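 (about 10 µM by stock and volumes)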;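 active = inhibition of 50% or more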;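 also: controls were vehicle for no effect and minimum signal wells for full effect; inactives centre near -20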
Mtb H37Rv – M. tuberculosis H37Rv growth inhibitors, H37Rv strain (AID 1626) | M. tuberculosis H37Rv growth inhibition; higher % means a stronger effect | inhibition, % at 10 µM; hits with a dose series show IC50 in µM | actives 0.95% (n = 220,000);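 active = confirmed in a dose series; inconclusive = inhibition above 80% but not taken into the dose series; inactive = below 80% or under 30% at every dose of the series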;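 also: bacteria incubated seven days before Alamar blue readout; 0% = bacteria only wells and 100% = bacteria with antibiotic wells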
RecA splice inh – Mtb RecA intein splicing inhibition; cell-free RecA intein splicing, fluorescence; P9WHJ3; actives 0.75% (n = 290,000); inhibition, %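 (about 9 µM by stock and volumes)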; in the data active = inhibition above about 30%; inconclusive = no clear call, values can overlap the other calls;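 also: 0% = vehicle wells and 100% = reference inhibitor control wells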
Target sequence (P9WHJ3 whole entry, looked up, canonical isoform): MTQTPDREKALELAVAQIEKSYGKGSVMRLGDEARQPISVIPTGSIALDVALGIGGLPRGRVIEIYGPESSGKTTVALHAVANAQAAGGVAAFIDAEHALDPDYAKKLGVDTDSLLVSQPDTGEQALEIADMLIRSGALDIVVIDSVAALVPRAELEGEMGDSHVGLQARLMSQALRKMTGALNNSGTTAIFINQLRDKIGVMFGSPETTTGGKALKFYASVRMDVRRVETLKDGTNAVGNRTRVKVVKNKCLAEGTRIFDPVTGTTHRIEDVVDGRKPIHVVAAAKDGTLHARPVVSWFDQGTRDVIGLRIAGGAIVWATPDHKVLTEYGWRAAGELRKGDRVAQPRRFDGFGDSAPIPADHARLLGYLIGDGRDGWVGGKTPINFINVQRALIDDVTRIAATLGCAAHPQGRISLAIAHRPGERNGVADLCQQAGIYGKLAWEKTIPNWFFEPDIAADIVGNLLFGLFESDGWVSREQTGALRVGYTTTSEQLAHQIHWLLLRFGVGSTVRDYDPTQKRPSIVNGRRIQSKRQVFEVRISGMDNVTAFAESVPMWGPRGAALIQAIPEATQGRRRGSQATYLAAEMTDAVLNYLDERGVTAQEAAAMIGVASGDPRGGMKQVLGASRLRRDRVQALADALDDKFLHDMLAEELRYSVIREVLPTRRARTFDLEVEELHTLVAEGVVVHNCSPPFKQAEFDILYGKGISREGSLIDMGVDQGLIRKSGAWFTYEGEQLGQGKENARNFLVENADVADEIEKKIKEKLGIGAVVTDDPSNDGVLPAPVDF
Arbovirus anti repeat – further read-out of Arbovirus anti, marked with its call; inhibition, %; measured here: 10K subset replicate screen; many hits read low in the repeat;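 first of two repeat runs on a subset; 0% = infected and 100% = uninfected wells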
* marks the source's active call; other numbers are inactive results; ? = inconclusive; · = not tested or not shown. This is a subset; rates above refer to the full screens.

SMILES	Mtb bLac sens	Arbovirus anti	YopH inh	Mtb H37Rv	RecA splice inh	others
Cc1ccc(-n2c(=O)[nH]c3c(C(N)=O)nc(CC(C)C)nc32)cc1	-2	-6	-4	-11%	-0.8
CN1C(=S)SC(N(O)C(=O)Nc2ccccc2)C1(C)C (stereo not given)	0	5	-18	2%	-4.0
CC1CCCCN1C(C(=O)O)c1ccccc1 (stereo not given)	-1	-4	·	3%	0.6
CN(CC(=O)Nc1cccc(F)c1)C(=O)/C=C/c1ccc(Br)s1	-4	·	·	·	-0.7
CCN(CC1CCCO1)C(=O)CCc1nnc(CCc2ccc(OC)cc2)o1 (stereo not given)	1	·	·	·	-0.1
COc1cccc(/C=N/NC(=O)Cn2cnc3c2c(=O)n(C)c(=O)n3C)c1OC	12	·	·	-2%	-3.7
CC(C)(C)NC(=S)NCC1CC1	-1	·	·	-9%	-0.6
Cc1nn(CC(=O)NCCc2cccs2)c(=O)c2nn(-c3ccccc3)c(C)c12	-10	·	·	·	-0.1
CCCCSc1nc(O)cc(=O)n1CC	-1	2	·	4%	0.3
COc1ccccc1NC(=O)c1ccc2c(c1)C(=O)N(Cc1ccco1)C2=O	-3	·	·	·	-2.4
COc1ccc(Cl)cc1NC(=O)C(C)N(C)Cc1ccc(C(F)(F)F)cc1 (stereo not given)	2	13	-38	11%	5.7
Cc1cc(NC(=O)CSc2nnc(C)n2-c2ccccc2)no1	-9	5	·	-6%	3.8
CC1CN(c2cc(=O)n(-c3cccc(Br)c3)c(=O)[nH]2)CC(C)O1 (stereo not given)	-3	-1	-53	1%	-0.5
N#Cc1c(NC(=O)C(=O)NCCCN2CCOCC2)sc2c1CCC2	2	·	·	·	2.8
CCCNC(=O)c1ccc2nc(-c3ccccc3)c(-c3ccccc3)nc2c1	63	-4	-28	2%	0.4
CSc1cccc(NC(=O)C2CCCN2S(=O)(=O)c2ccc(Br)s2)c1 (stereo not given)	-13	14	-8	4%	6.2
CCOC(=O)C1=C(C)N(CCCC(=O)NCc2ccc3c(c2)OCO3)C(=O)NC1c1ccc(Br)cc1 (stereo not given)	-7	5	-36	-9%	·
O=C(CNC(=O)C1CCCCC1)NC1CCCCC1	-1	·	·	·	-2.7
COc1ccc(-c2nc[nH]c2[N+](=O)[O-])cc1	-12	-4	·	7%	-3.0
O=c1cc(-c2ccccc2Cl)oc2c(NS(=O)(=O)c3ccccc3C(F)(F)F)ccc(O)c12	-7	·	·	0%	12
N#Cc1nc(-c2ccc(OCc3ccc(Cl)cc3)cc2)oc1N1CCOCC1	1	3	-33	-4%	-1.3
COCCNC(=O)CN1C(=O)NC(c2ccccc2)(c2ccccc2)C1=O	0	·	·	·	1.0
CC(=O)NC(CC(=O)OCc1ccc([N+](=O)[O-])cc1)c1ccccc1 (stereo not given)	-1	·	·	·	-0.9
CC1CN(S(=O)(=O)c2ccc(C(=O)N(CCCN(C)C)c3nc4c(Cl)cccc4s3)cc2)CC(C)O1 (stereo not given)	-4	·	·	·	-1.1
COc1ccc(/C=C/C(=O)O)cc1COc1ccccc1C	7	-8	11	-7%	2.5
Cc1ccc(NC(=O)CSc2sc3c(O)cc(=O)[nH]c3c2C#N)c(F)c1	-4	·	·	·	1.9
O=C(CSc1nccc(=O)[nH]1)N1N=C2/C(=C/c3ccco3)CCCC2C1c1ccco1 (stereo not given)	0	49*	·	-2%	1.6
Cc1cc(NC(=O)Cn2cnc3sc(C)c(-c4ccccc4)c3c2=O)no1	·	0	-15	7%	0.6
COc1cccc(CNC(=O)C(C)n2ccc3cc(S(=O)(=O)N4CCCC4)ccc32)c1 (stereo not given)	-4	·	·	·	0.8
COc1ccc(-c2cc(C(=O)N/N=C/c3ccc4c(c3)OCO4)c3ccccc3n2)c(OC)c1	15	-5	-26	3%	4.2
CN(CC(=O)Nc1cccc(S(=O)(=O)N2CCOCC2)c1)CC(=O)Nc1ccc(Cl)c(C(F)(F)F)c1	71	·	·	·	6.6
COc1ccc(C2=NN(CCC(=O)NC3CCC(C)CC3)C(=O)CC2)cc1 (stereo not given)	-4	·	·	·	-3.5
COc1ccc(-n2c(=O)c3ccccc3n(CC(=O)OCc3ccccc3)c2=O)cc1OC	-11	-6	·	4%	-1.0
C/C(=N\NC(=O)c1cccnc1)c1cc2ccccc2o1	0	-8	·	-3%	-9.3
CN1CCN(c2ccc(NC(=O)c3sc4ccccc4c3Cl)cc2)CC1	69	-9	·	?	-0.9
Cc1nc2cc(NC(=O)N3c4ccccc4CC3C)ccc2n1C (stereo not given)	6	3	-26	-3%	·
COc1cc(NC(=O)c2nn(C)c3c2CS(=O)(=O)c2ccccc2-3)cc(OC)c1	3	·	·	·	-3.4
Cc1oc2ncnc(N)c2c1C	-3	3	-41	-5%	-2.7
Cc1cc(=O)oc2c3c(cc(OCC(=O)N[C@@H](CC(C)C)C(=O)O)c12)OC(C)(C)CC3	-6	·	·	·	-0.6
COc1cccc(CN2CCNC(=O)C2CC(=O)N(C)CCC2CCOCC2)c1 (stereo not given)	8	·	·	·	-3.1

Among those listed so far, these have a nitro group on carbon.
SMILES	Mtb bLac sens	Arbovirus anti	YopH inh	Mtb H37Rv	RecA splice inh	others
COc1ccc(-c2nc[nH]c2[N+](=O)[O-])cc1	-12	-4	·	7%	-3.0
CC(=O)NC(CC(=O)OCc1ccc([N+](=O)[O-])cc1)c1ccccc1 (stereo not given)	-1	·	·	·	-0.9

Continued:
SMILES	Mtb bLac sens	Arbovirus anti	YopH inh	Mtb H37Rv	RecA splice inh	others
COc1cccc(C(C(=O)NC(C)(C)C)N(Cc2ccc(C)cc2)C(=O)CCC(=O)Nc2cc(C)on2)c1OC (stereo not given)	-1	·	·	·	4.4
COCCNC(=O)C(c1ccccc1)N(C(=O)Cn1nnc2ccccc21)c1cccnc1 (stereo not given)	-7	-6	-28	6%	-1.2
COc1ccc(C2(CCN)CC(C)N(C)CC2C)cc1 (stereo not given)	7	-1	-44	0%	1.2
COc1ccc(CNC(=O)CCCNC(=O)c2ccc(Cl)cc2)cc1OC	-2	·	·	·	1.4
CC(C)c1ccc(N(CC(=O)NC2CCCC2)C(=O)CCC(=O)Nc2ccccn2)cc1	2	·	·	·	5.9
CN1CCN(C(=O)/C(=C/c2ccc(F)cc2)c2ccsc2)CC1	-2	16	·	9%	-4.6
CCSc1cc(Cl)nc(N)n1	-6	·	·	-5%	1.5
Fc1ccc2c(Cl)c(-c3nnc(-c4cccs4)o3)sc2c1	0	-7	-35	-5%	-1.2
CCOc1ccc(N(CC(=O)Nc2ccc(OC)cc2OC)S(=O)(=O)c2c(C)[nH]c(=O)[nH]c2=O)cc1	-1	·	·	·	5.1
CC(C)C(c1nnnn1Cc1ccc(F)cc1)N1CCN(c2ccc(O)cc2)CC1 (stereo not given)	-9	-17	·	4%	5.7
CCOc1ccc(N2CC(C(=O)Nc3ccccc3N3CCOCC3)CC2=O)cc1 (stereo not given)	-9	9	-22	-2%	1.7
c1csc(CN2CCOCC2)c1	9	1	-16	-5%	2.8
CC(=O)c1sc(NC(=O)COc2ccccc2)nc1C	13	-3	·	0%	-3.6
O=C(CNCc1ccc(Cl)cc1)Nc1ccc2c(c1)OCCO2	-12	-2	·	9%	-1.9
CCOC(=O)N1CCC(NC(=O)c2cc(C(=O)NC3CCCC3)ccc2CO)CC1	0	-1	-34	0%	4.5	Arbovirus anti repeat=4
O=[N+]([O-])c1ccccc1S(=O)(=O)Nc1cccc(-c2ccc3nncn3n2)c1	-9	·	·	·	-2.8
COc1cc(NC(=O)C2=C(N3CCOCC3)/C(=C/c3ccc(Cl)cc3)CC2)cc(OC)c1OC	1	18	-20	3%	1.7
Cc1cc(C)nc(/N=C(\NC(=O)C(C)(C)C)Nc2ccc(F)cc2)n1	7	·	·	-4%	1.3
COc1cccc(-c2nn(-c3ccccc3)cc2CN(C)Cc2c(C)nc3ccccn23)c1	70	-17	·	36%	13
O=C(NCc1c(Cl)cccc1Oc1ccccc1)c1ccccc1	-6	·	·	-9%	·
Cc1ccc(C)c(NC(=O)CN(C)S(=O)(=O)c2ccccc2)c1	-4	-3	-16	-9%	-0.1
CCn1cc(Cl)c(C(=O)NNC(=O)CCn2cc([N+](=O)[O-])cn2)n1	4	1	-22	0%	0.3
Cc1cccc(Oc2ccc(NC(=O)C3CC=CCC3C(=O)O)cc2)c1 (stereo not given)	-5	3	·	7%	-2.6
N/C(=N\OC(=O)c1ccco1)c1ccccn1	5	1	·	-6%	·
CCc1ccccc1NC(=O)CSc1nc(-c2ccccc2)nn1C(=O)c1cccc([N+](=O)[O-])c1	5	9	-2	-5%	0.1
CC(=O)c1cnc2nc(SCc3ccccc3C)nn2c1C	1	·	·	·	1.3
COc1ccc(C)cc1S(=O)(=O)NCCN1CCOCC1	-4	·	·	·	-0.8
CCOc1ccc(NC(=O)CSc2nc(=O)n(Cc3cccnc3)c3c2CCC3)cc1	-6	·	·	·	-1.8
O=C(COC(=O)c1ncc(Cl)c(Cl)c1Cl)NCCc1ccccc1	3	·	·	·	19
CCCNC(=O)COc1ccc(S(=O)(=O)Nc2ccc(C)cc2)cc1	2	1	-2	1%	-1.3
O=C(NCC1CCCO1)C(=O)N/N=C/c1cc(Cl)ccc1O (stereo not given)	4	·	·	-4%	-3.0
Cc1ccc(S(=O)(=O)Nc2ccc(S(=O)(=O)Nc3nccs3)cc2)c([N+](=O)[O-])c1	?	·	·	·	5.9
Cc1ccc(NC(=O)CCSc2nnc(-c3ccco3)o2)cc1	97	3	-17	4%	0.1
CCC(C)(C)C1CCC2(CC1)NC(=O)N(CC(=O)N(C)Cc1ccc(OC(F)F)cc1)C2=O (stereo not given)	1	·	·	·	-1.3
O=C(CCNC(=O)c1ccccc1Cl)Nc1cccc(C(F)(F)F)c1	-2	4	-11	2%	·
CCc1cccc(C)c1NC(=O)C1CN(S(=O)(=O)c2ccccc2)CCN1S(=O)(=O)c1ccccc1 (stereo not given)	-5	2	-31	6%	5.3
Cn1ncc2c(N3CCCCC3)nc(NCCCO)nc21	-2	·	·	·	3.1
Cc1cc(C)cc(N(CC(=O)NC2CCCC2)C(=O)CCC(=O)Nc2nccs2)c1	-7	·	·	·	1.7
Nc1nnc(-c2ccc(Cl)cc2Cl)s1	-9	-8	·	-2%	-2.6
CCN(CC)C(=O)CNC(=O)Cc1ccc(Cl)cc1	-6	3	-24	-1%	1.6
CCCc1cc(=O)n2[nH]c(-c3ccc(Cl)cc3)cc2n1	-8	·	·	·	1.6
COc1ccc(C(C)(C)C)cc1NC(=S)NCCN1CCOCC1	0	7	-31	-3%	-0.2
Cc1ccc2c(c1)c1c3n2CCN(CC(N)=O)C3CCC1 (stereo not given)	8	·	·	·	-2.7
CC(=O)N1CCN(Cc2nc3cc(NC(=O)COc4ccccc4)ccc3n2C)CC1	5	-1	·	7%	1.0
Cc1c(NC(=O)c2ccc(S(=O)(=O)N(C)c3ccccc3)cc2)c(=O)n(-c2ccccc2)n1C	0	3	·	1%	-1.2
COc1ccc(Br)cc1CNC(=O)C1CCCN(S(=O)(=O)N2CC(C)CC(C)C2)C1 (stereo not given)	10	·	·	·	0.7
O=C(O)CCCCCn1c(O)c(C=C2N=c3ccccc3=N2)sc1=S	2	5	-43	9%	-4.1
CCOc1ccc(C(=O)CN2CCN(S(=O)(=O)c3ccc(Cl)cc3)CC2)cc1	4	5	-47	5%	-0.9
Nc1ccnn1Cc1cccnc1	-5	1	-47	5%	-1.4
CCOc1cccc2cc(C(=O)NCc3ccc(Cl)cc3)c(=N)oc12	24	·	·	·	1.1

Overlap with the part before: 5 compounds, followed by the next part.
SMILES	Mtb bLac sens	Arbovirus anti	YopH inh	Mtb H37Rv	RecA splice inh	others
COc1ccc(Br)cc1CNC(=O)C1CCCN(S(=O)(=O)N2CC(C)CC(C)C2)C1 (stereo not given)	10	·	·	·	0.7
O=C(O)CCCCCn1c(O)c(C=C2N=c3ccccc3=N2)sc1=S	2	5	-43	9%	-4.1
CCOc1ccc(C(=O)CN2CCN(S(=O)(=O)c3ccc(Cl)cc3)CC2)cc1	4	5	-47	5%	-0.9
Nc1ccnn1Cc1cccnc1	-5	1	-47	5%	-1.4
CCOc1cccc2cc(C(=O)NCc3ccc(Cl)cc3)c(=N)oc12	24	·	·	·	1.1
COc1cc(-c2nnc(COc3ccc4cc(Br)ccc4c3)o2)cc(OC)c1OC	2	-10	3	-4%	-1.9	Arbovirus anti repeat=-17
CCC(=O)c1c[nH]c(C(=O)NCCc2ccccn2)c1	2	7	-37	-24%	-15
Cc1ccccc1N/N=C1\CCCNC1=O	0	-2	-49	0%	-2.9
CC(=O)N1CCN(c2ccc([N+](=O)[O-])c(NCC3CCCO3)c2)CC1 (stereo not given)	-5	-3	-32	-6%	2.4
O=C(/C=C/c1cccs1)N1CCC2(CC1)Oc1ccc(Cl)cc1C(=O)C21CC(c2ccccc2)=NO1 (stereo not given)	-6	·	·	0%	9.9
